AF4-AF9 inh: MLL-AF4/AF9 protein interaction inhibition | AID 651704 | P42568 | 350,000 compounds, 0.47% hits | inhibition, % at 10 µM | AlphaScreen, biotin-AF4 peptide binding to FLAG-AF9;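 active means every replicate reaching a set inhibition limit, whatever the replicate mean, cut at about 25% in these data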;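 further: 0% = plate neutral control median and 100% = total signal loss; the record names both 10 and 1 µM as test concentration; the first replicate is given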
Target sequence (P42568 whole entry, looked up): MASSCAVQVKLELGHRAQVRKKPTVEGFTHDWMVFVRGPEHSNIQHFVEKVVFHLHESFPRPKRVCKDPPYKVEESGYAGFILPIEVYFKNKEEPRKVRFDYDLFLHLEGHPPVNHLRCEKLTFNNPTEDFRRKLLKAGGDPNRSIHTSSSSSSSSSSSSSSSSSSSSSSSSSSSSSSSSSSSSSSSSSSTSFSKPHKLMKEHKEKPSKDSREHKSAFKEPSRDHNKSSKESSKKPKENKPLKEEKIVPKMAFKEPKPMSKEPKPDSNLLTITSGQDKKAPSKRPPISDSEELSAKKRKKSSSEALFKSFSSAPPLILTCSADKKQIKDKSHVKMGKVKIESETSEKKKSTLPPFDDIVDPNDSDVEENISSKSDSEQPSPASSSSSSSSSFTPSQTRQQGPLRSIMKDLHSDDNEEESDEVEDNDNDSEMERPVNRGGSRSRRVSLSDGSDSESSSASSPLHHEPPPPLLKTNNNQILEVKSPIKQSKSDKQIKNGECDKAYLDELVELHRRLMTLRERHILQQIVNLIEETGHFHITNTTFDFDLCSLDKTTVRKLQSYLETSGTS
Beta apoptosis: blocks beta cell apoptosis | protection from apoptosis, % (test concentration not listed) | INS-1E cytokine-induced death, ATP luminescence, 48 h; percent of positive-control rescue, neutral wells zero | 300,000 compounds, 0.8% hits;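 active means all replicates at 75% or more, or half of them and the mean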;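 further: 0% = cytokine-treated negative control wells and 100% = positive control rescue; higher means more ATP so stronger rescue from cytokine killing; wells of about 40 µL received 100 nL stock; the first replicate is given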
T cruzi repl: blocks replication of Trypanosoma cruzi | T. cruzi beta-gal in NIH3T3, luminescence, 90 h | AID 1885 | 300,000 compounds, 1.4% hits | inhibition, % (no concentration beside the values);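 active means mean inhibition across valid replicates above about 55%, limit read from the data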;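 further: signal also drops with host cell toxicity which is not excluded here; 0% = plate median of DMSO wells and 100% = zero luminescence signal; higher percent means less beta-gal luminescence so fewer parasites; stock transfer was 50 nL into about 50 µL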
rRNA inh HTS: inhibits bacterial ribosomal RNA function over humanized ribosomes; AID 720706; 350,000 compounds, 1.6% hits; GFP signal change (wild-type ribosome), % (test concentration not listed); E. coli WT GFP vs humanized-ribosome RFP mutants, fluorescence, 24 h; active compounds read low; DMSO median 0, no signal -100;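 active means significant combined selectivity score with lowered wild-type GFP, culture density cut under 30%, mutant RFP and density less affected; inactive means any of these conditions unmet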; further: one replicate is shown; some compounds called inactive have numbers as strong as hits
FGF22 binding: shifts melting point of recombinant human FGF22. Q9HCT0. recombinant FGF22 thermal shift, SYPRO orange fluorescence; percent of sucrose octasulfate shift, DMSO zero. calls only at 9.99 µM. 340,000 compounds, 1.5% hits. AID 651658;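 active means melting point raised past a set limit in the mean and every replicate; three in four hits are not shown here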
Target sequence (Q9HCT0 whole entry, looked up): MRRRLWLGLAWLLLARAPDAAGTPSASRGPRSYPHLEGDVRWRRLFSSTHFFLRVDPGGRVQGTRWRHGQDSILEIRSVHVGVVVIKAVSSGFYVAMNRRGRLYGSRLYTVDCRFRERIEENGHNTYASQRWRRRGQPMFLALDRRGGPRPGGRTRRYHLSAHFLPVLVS
UCH37 DUB inh: inhibitors of human deubiquitinating enzyme UCH37. Q9Y5K5. inhibition, % (concentration not given with the values). 330,000 compounds, 0.33% hits. purified proteasome/UCH37, Ub-AMC cleavage fluorescence;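 active means mean of two replicates above 20%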;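 further: 0% = compound-free wells with enzyme and 100% = wells lacking proteasome; stock transfer was 100 nL into about 20 µL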
Target sequence (Q9Y5K5 whole entry, looked up): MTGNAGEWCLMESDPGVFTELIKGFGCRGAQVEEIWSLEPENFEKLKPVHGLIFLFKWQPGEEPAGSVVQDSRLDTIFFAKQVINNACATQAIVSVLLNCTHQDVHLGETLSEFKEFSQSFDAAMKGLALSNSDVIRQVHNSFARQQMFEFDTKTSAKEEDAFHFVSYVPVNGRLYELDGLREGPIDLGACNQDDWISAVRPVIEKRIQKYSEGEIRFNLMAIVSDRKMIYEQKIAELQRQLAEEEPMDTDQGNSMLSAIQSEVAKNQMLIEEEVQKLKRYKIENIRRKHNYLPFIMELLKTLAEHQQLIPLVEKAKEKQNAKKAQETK
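System: Proteasome-associated human UCH37 deubiquitinase; Input: 0.15 nM proteasome in added enzyme buffer; Also added: Ub-AMC substrate from 1 µM stock; Incubation: 30 min compound-proteasome preincubation then 25 min substrate reaction, room temperature; Detection: fluorescence, ex 355 nm, em 460 nm; Read-out: % inhibition of Ub-AMC cleavage fluorescence; Benchmarks: no-proteasome and no-compound wells.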
E coli growth: E. coli growth inhibition; OD600 absorbance (test concentration not listed); 330,000 compounds, 0.21% hits; Escherichia coli growth, OD600, 23 h; active compounds read low;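 active means OD600 absorbance below the run mean of sample wells minus 3.6 SD, in any replicate, cut at about 0.56 in these data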;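 further: stock transfer was 300 nL into about 60 µL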
A1 inh: inhibitors of the anti-apoptotic protein A1, read as caspase activation. MEF A1-2A-BIM cells, Caspase-Glo 3/7 luminescence, 3 h; percent of clofoctol response, vehicle zero. caspase activation, % (test concentration not listed). 330,000 compounds, 0.066% hits;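 active means over half of replicate activation scores above 10%, or exactly half above 10 with the replicate mean above 10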;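 further: wells of about 30 µL received 50 nL stock; many hits fall short of the cut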
rRNA inh HTS OD600: second read-out of rRNA inh HTS, no call of its own (marks repeat the call); OD600 change, %; measured here: OD600 growth;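 optical density of the mix in the first replicate; 0 = DMSO median and -100 = no signal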
rRNA inh HTS RFP: further read-out of rRNA inh HTS, marked with its call; RFP signal change, %; measured here: RFP humanized mutant strains;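 first replicate; 0 = DMSO median and -100 = no signal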
* hit, by the source's call; i = inactive; / = no result given; & = joins results of further samples. Not all compounds are listed; rates above refer to the full screens.

Molecule,AF4-AF9 inh,Beta apoptosis,T cruzi repl,rRNA inh HTS,rRNA inh HTS OD600,rRNA inh HTS RFP,FGF22 binding,UCH37 DUB inh,E coli growth,A1 inh
O=C(Cc1ccccc1)Nc1ccc(C(=O)Nc2ccccc2C(=O)O)cc1,-0.9,-9,-30,-39,-34,-4.4,i,2.2,0.69,-1.9
O=c1oc(-c2ccc(O)c(O)c2)cc2cccc(O)c12,0.3,/,/,-25,-47,-28,i,-53,0.61,/
CC(=O)Nc1ccc(S(=O)(=O)NCCc2ccc(F)cc2)cc1,/,1,-3,/,/,/,/,1.6,0.66,0.3
CCOc1ccccc1OCC(=O)OCc1csc(CC(=O)Nc2ccccc2C)n1,-6.7,0,-6,6,4,0.7,i,-0.4,0.62,0.2
COc1ccccc1Nc1nc(N)nc(CN2CCc3ccccc3C2)n1,/,-2,42,/,/,/,/,4.5,0.7,-0.2
O=C(O)c1cc(=S)nc[nH]1,6.5,/,/,27,20,5.4,i,4.3,0.62,/
COCCCNC(=O)/C(C#N)=C/c1c(N2CCN(C)CC2)nc2ccccn2c1=O,0.2,1,-8,18,10,0.7,i,-59,0.69,0.5
CCOc1ccccc1OCCCC(=O)N(CC)CC(=O)Nc1ccc(NC(C)=O)cc1,0.5,-3,-4,1,-4,-0.3,i,4.5,0.65,1.7
O=C(CCCNS(=O)(=O)c1cccc2nsnc12)NCCc1ccccc1,/,-1,-4,/,/,/,/,2.7,0.69,-0.2
COC(=O)c1oc2ccccc2c1N,/,1,-5,/,/,/,/,-3.8,0.67,0.1
CCCCOc1ccccc1N,/,1,-26,/,/,/,/,5.2,0.7,0.2
NCCNCCNCCN,17,-13,-3,/,/,/,i,-1.6,/,-0.2
CCOC(=O)c1ccc(NC(=O)c2nc[nH]c2C(=O)N[C@@H](CC(C)C)C(=O)OCc2ccccc2)cc1,2.9,-9,33,9,17,1.2,i,0.7,/,2.1
Cc1cc[n+](CCc2ccccc2)cc1C,-19,-9,-4,12,9,-1.1,i,3.1,0.68,0.0
C=CCn1c(=O)/c(=C/c2ccc(O)cc2)s/c1=C(/C#N)c1nnc2n1CCCCC2,1.7,15,/,9,-6,0.2,i,/,/,0.1
Cc1cc(C)nc(N/N=C/c2cc3c(cc2[N+](=O)[O-])OCO3)n1,1.7,-3,-3,13,7,3.7,i,/,/,0.7
Cc1cc(NC(=O)CSCC(=O)Nc2ccccc2Oc2ccccc2)no1,7.6,-11,-12,-9,-12,3.3,i,1.0,0.68,0.2
S=c1[nH]nc(C2CCCCC2)n1/N=C/c1ccc(Br)cc1,0.1,/,9,10,18,-1.3,i,/,/,0.5
CC(C)C(NC(=O)/C=C/c1ccc(F)cc1)C(C)C,/,9,-6,/,/,/,/,2.7,0.71,0.4
CCOC(=O)c1sc(N(Cc2ccccc2)C(=O)CSc2nnc(C3CC3)n2N)nc1C,/,8,-5,/,/,/,/,2.7,0.7,0.0
CC1CN(C(=O)Nc2ccc(F)cc2F)CC(C)O1 (centres undefined),-0.5,-2,1,5,1,-0.7,i,-0.8,0.69,-0.3
CN(Cc1ccccc1)S(=O)(=O)c1ccc(OCC(=O)NCc2ccncc2)cc1,-0.3,4,-9,5,4,-0.2,i,6.7,0.67,-1.2
COc1ccc(C(=O)OC2CCN(c3ncc(C(F)(F)F)cc3Cl)CC2)cc1,/,-6,-22,/,/,/,/,4.5,0.74,0.1
C=CCN1C(=O)C(CC(=O)Nc2ccccc2)SC1=Nc1ccc(S(N)(=O)=O)cc1 (centres undefined),/,-1,-10,/,/,/,/,2.8,0.73,0.3

A different layout for some results above.
Values in the order – AF4-AF9 inh, Beta apoptosis, T cruzi repl, rRNA inh HTS, rRNA inh HTS OD600, rRNA inh HTS RFP, FGF22 binding, UCH37 DUB inh, E coli growth, A1 inh
Cc1cc[n+](CCc2ccccc2)cc1C
 : -19, -9, -4, 12, 9, -1.1, i, 3.1, 0.68, 0.0
C=CCn1c(=O)/c(=C/c2ccc(O)cc2)s/c1=C(/C#N)c1nnc2n1CCCCC2
 : 1.7, 15, /, 9, -6, 0.2, i, /, /, 0.1

(next part)
Molecule,AF4-AF9 inh,Beta apoptosis,T cruzi repl,rRNA inh HTS,rRNA inh HTS OD600,rRNA inh HTS RFP,FGF22 binding,UCH37 DUB inh,E coli growth,A1 inh
CC1Cc2ccccc2N1C(=O)CSc1nc(-c2ccco2)cc(C(F)(F)F)n1 (centres undefined),-0.2,5,10,5,1,-0.4,i,-4.0,0.64,-0.5
CCCCOc1ccc(C(=O)N(CC)CC(=O)NCc2cccs2)cc1,-0.5,-1,3,-2,-2,0.2,i,1.6,0.66,0.2
CCONc1ncnc2nonc12,-2.7,-8,-7,9,4,-0.2,i,4.8,0.69,1.3
NC(=O)CC1C(=O)N(c2ccc(F)cc2)C(=O)N1NC(=O)CCc1ccccc1 (centres undefined),2.5,-6,12,-10,0,-2.2,i,3.0,0.69,1.7
O=C(Cc1ccsc1)N1CCN(S(=O)(=O)c2cc(C(F)(F)F)cc(C(F)(F)F)c2)CC1,-1.4,3,-4,-10,-12,0.5,i,1.1,0.69,1.9
CCOC(=O)c1[nH]ncc1CN1CCN(Cc2ccc(C)cc2)C(CCO)C1 (centres undefined),1.0,2,-5,15,8,0.2,i,1.3,0.68,-0.6
CCOC(=O)C1CCCN(S(=O)(=O)Cc2ccc(Cl)cc2)C1 (centres undefined),-5.5,-2,2,1,-9,-2.7,i,-0.2,0.63,0.3
Cn1c(SCC(=O)C(C)(C)C)nnc1-c1cccnc1,/,0,8,/,/,/,/,0.9,0.63,-0.5
C=C(C)CNC(=S)N/N=C/c1c(F)cccc1F,3.6,-3,-8,-1,-1,3.3,/,/,/,-0.5
Cc1ccc(S(=O)(=O)N(C)C)cc1NC(=O)C1CCCC1,/,-9,1,/,/,/,/,-3.0,0.64,0.5
O=C(NCCC1CCCCN1S(=O)(=O)c1ccc(Cl)cc1)C(=O)NCc1ccco1 (centres undefined),0.0,-2,-16,-10,-17,3.4,i,3.1,0.68,0.3
N#C/C(=C1/CCCCCN1)c1nc2ccccc2s1,/,4,32,/,/,/,/,-0.3,0.7,2.0
Cc1ccc(NC(=O)Cn2c(=O)cnc3ccccc32)cc1S(=O)(=O)N(C)C,/,1,3,/,/,/,/,-8.0,0.66,-0.3
COCC(=O)n1nc(-c2ccccc2)nc1NCc1ccc(N(C)C)cc1,4.3,-2,8,-7,-4,-0.9,/,1.0,0.69,-0.6
CCCCOC(=O)Nc1cccc(Cl)c1C,/,4,-3,4,8,1.5,/,0.8,0.72,0.6
COc1ccc(/C=N\Nc2ccccn2)c(OC)c1,1.4,-8,11,6,11,-5.9,i,/,/,-6.9
O=C(NNC(=O)[C@@H]1CCCC[C@@H]1C(=O)O)c1cccs1,/,2,5,/,/,/,/,4.0,0.7,0.7
O=C(Nc1ccc2c(c1)OCCO2)c1cccs1,-0.3,4,0,-5,-2,-2.1,i,6.6,0.7,-7.5
O=Cc1ccc(OCC(=O)N2CCc3ccccc32)c(Br)c1,-0.1,/,/,0,0,-1.0,i,0.3,0.67,/
NC(=O)c1ccsc1NC(=O)COC(=O)c1c(F)cccc1Cl,2.2,-4,/,-8,-20,0.5,i,1.7,0.7,-1.5
CCSc1ccc([C@@H]2[C@H]3C(=O)N(CC)C(=O)[C@H]3[C@]3(C(=O)OC)CCCCN23)cc1,-4.6,3,4,11,-4,5.0,i,-1.0,/,0.8
CCc1ccccc1N(CC(=O)NCc1ccco1)C(=O)CCC(=O)Nc1nccs1,3.5,4,-4,-3,-3,0.7,i,3.1,0.71,0.5
Cn1c(=O)[nH]c(=O)c2c1nc(N(CCO)Cc1ccccc1)n2CCCc1ccccc1,-1.2,8,-4,-17,-22,-5.0,i,2.9,0.76,1.3
C[C@H](CO)N1C[C@H](C)[C@@H](CN(C)S(=O)(=O)c2ccccc2)Oc2c(NC(=O)Nc3ccc(C(F)(F)F)cc3)cccc2C1=O,5.8&1.6,-8,/,-4&10,-7&1,1.3&4.5,i,1.7,0.77,-0.6

Record cards (already shown). Screens in order: AF4-AF9 inh | Beta apoptosis | T cruzi repl | rRNA inh HTS | rRNA inh HTS OD600 | rRNA inh HTS RFP | FGF22 binding | UCH37 DUB inh | E coli growth | A1 inh
Record of `Cn1c(=O)[nH]c(=O)c2c1nc(N(CCO)Cc1ccccc1)n2CCCc1ccccc1` : -1.2 | 8 | -4 | -17 | -22 | -5.0 | i | 2.9 | 0.76 | 1.3
Record of `CCSc1ccc([C@@H]2[C@H]3C(=O)N(CC)C(=O)[C@H]3[C@]3(C(=O)OC)CCCCN23)cc1` : -4.6 | 3 | 4 | 11 | -4 | 5.0 | i | -1.0 | / | 0.8
Record of `O=C(Nc1ccc2c(c1)OCCO2)c1cccs1` : -0.3 | 4 | 0 | -5 | -2 | -2.1 | i | 6.6 | 0.7 | -7.5

Next structures follow:
Molecule,AF4-AF9 inh,Beta apoptosis,T cruzi repl,rRNA inh HTS,rRNA inh HTS OD600,rRNA inh HTS RFP,FGF22 binding,UCH37 DUB inh,E coli growth,A1 inh
COc1cc(CN2CCCC(N3CCN(c4ccccc4C)CC3)C2)cc(Cl)c1O (centres undefined),8.0,-3,43,-11,-12,5.0,i,2.7,0.69,0.9
O=C(/C=C/c1ccccc1)N1CCN(C(=O)c2ccco2)CC1,/,0,-9,/,/,/,/,-0.8,0.68,0.2
COc1cc(CCN2C(=O)c3cccc4cccc(c34)C2=O)c(S(=O)(=O)NCCCO)cc1OC,/,15,2,/,/,/,/,2.1,0.69,-0.2
CCCCCC1CC(=O)N(Cc2ccc(Cl)cc2)C(=O)N1 (centres undefined),/,-2,21,/,/,/,/,1.9,0.74,-0.4
CCn1c(COc2ccccc2)nnc1SCC(=O)Nc1ccc2c(c1)OCCO2,/,0,1,/,/,/,/,0.9,0.62,0.7
Cc1nn(C)c(C)c1CN(C)C(=O)c1nn2c(c1Br)NC(c1cccs1)CC2C(F)(F)F (centres undefined),0.4,-1,-9,-11,-8,-2.9,i,0.1,/,0.1
Cc1cccc(N=Cc2cc3c(cc2[N+](=O)[O-])OCO3)c1,/,-4,-2,/,/,/,/,4.2,0.71,-0.4
COc1ccc(-c2cc(C(=O)Nc3cnn(Cc4ccccc4C)c3)no2)cc1OC,1.6,5,-12,10,9,-8.7,i,-36,0.76,0.9
Cc1ccc2c(COC(=O)CNC(=O)c3ccco3)cc(=O)oc2c1C,5.8,/,/,-9,-40,-2.2,i,-1.1,0.62,/
CN(Cc1ccc(Cl)s1)C(=O)CN1C(=O)N(C)C2(CCCCC2)C1=O,-17,/,/,1,-3,2.2,i,0.8,0.65,/
COC(=O)c1c(C)oc2ccc(N(C(=O)Oc3ccccc3)S(=O)(=O)c3ccc(Cl)c([N+](=O)[O-])c3)cc12,/,0,26,/,/,/,/,1.3,0.73,-0.1
CN1CCN(Cc2cccc(Oc3ccc(Cl)cc3)c2)CC1,12,0,75*,-6,-10,-3.0,i,1.8,0.66,0.0
Cc1ccc(C(NC(=O)c2ccccc2)C(Cl)(Cl)Cl)cc1 (centres undefined),/,-3,1,/,/,/,/,3.2,0.69,-0.5
CS(=O)(=O)N1CCN(c2ccc(NC(=O)Cc3ccccc3)cc2)CC1,/,-7,2,/,/,/,/,0.5,0.68,-0.5

High-throughput results: PubChem, several laboratories
